Bioassay records from PubChem.
Yeast UUG start: modulators of start codon recognition fidelity in yeast; S. cerevisiae UUG-firefly luciferase reporter, luminescence/redox ratio; activity score, % at 18.7 µM; actives 0.13% (n = 350,000); AID 602363;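 active = replicate mean at a twofold rise or more, about +100% in these data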;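 also: firefly luciferase made from a UUG start codon reports start codon fidelity; reporter light over untreated wells divided by growth signal over untreated wells; some hits fall short of that in this replicate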
MT1-MMP act inh: inhibitors of human MT1-MMP activation; HT1080 RFP-PRO-GFP cells, GFP/RFP ratio fluorescence, overnight; percent of plate control window, DMSO zero; GFP/RFP ratio change, % at 20 µM; actives 0.061% (n = 360,000);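 active = GFP/RFP ratio change of at least 30% with cell ATP level not reduced by more than half and red fluorescence within 50% of control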; also: strong numbers were not always called active
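Test system: HT1080 RFP-PRO-GFP cells; Benchmarks: DMSO and RFP-L50D-GFP cell wells; Timing: cells overnight before dosing, compound overnight, 37 °C, 5% CO2; Compound: one 20 µM compound dose with 1% DMSO; Read-out: GFP/RFP fluorescence ratio.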
CSC inhib: blocks cancer stem cells. cancer stem cell-like cells viability, luminescence. inhibition, % at 7.5 µM. actives 1.1% (n = 300,000). AID 2717;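 active = mean at 75% or more and at least half the replicates too; inconclusive = mean and replicates disagree; tested in HMLE shEcad cells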;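 also: 0% = median of negative and 100% = median of positive control wells; the first replicate is given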
Rce1 inh: inhibitors of yeast Ras-converting enzyme. yeast membranes, quenched prenylated peptide cleavage fluorescence. calls only. actives 0.27% (n = 290,000). AID 2563;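 active = fall in fluorescence gain of 50% or more versus controls, with final raw signal at or below 3038400; inconclusive = same 50% fall but final raw signal above 3038400; inactive = fall in fluorescence gain under 50%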;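 also: plate controls were neutral control wells for no effect and wells lacking membranes for full effect; tested at 10 µM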
Env fusion inh: inhibitors of HIV Env-mediated cell fusion; HeLa-JRFL Env/CEM21 cell fusion, luciferase; actives 1.1% (n = 360,000); AID 651610; inhibition, % at 12.3 µM;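 active = mean replicate inhibition score of at least 50 and every replicate individually at or above 50; inconclusive = only one of the two criteria met; inactive = mean below 50 and not all replicates reaching 50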;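 also: 0% = plate neutral controls and 100% = maraviroc near 300 nM; one replicate is shown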
PABP polyA inh: PABP-poly(A) binding inhibition. P11940. PABP-poly(A) RNA binding, fluorescence polarization. inhibition, % at 35 µM. actives 1% (n = 290,000);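 active = 50% or more with normal probe brightness, or confirmed in later tests; inconclusive = above 50% with abnormal brightness, or retests that disagree; inactive = below 50% or failed in later tests; about a fifth of its hits are not listed in these tables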;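 also: calls also rest on retests at 20 µM and on dose response follow-up; controls were probe without protein and protein plus probe with vehicle; some compounds called inactive have numbers as strong as hits; many hits fall short of the cut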
Target sequence (P11940 whole entry, looked up): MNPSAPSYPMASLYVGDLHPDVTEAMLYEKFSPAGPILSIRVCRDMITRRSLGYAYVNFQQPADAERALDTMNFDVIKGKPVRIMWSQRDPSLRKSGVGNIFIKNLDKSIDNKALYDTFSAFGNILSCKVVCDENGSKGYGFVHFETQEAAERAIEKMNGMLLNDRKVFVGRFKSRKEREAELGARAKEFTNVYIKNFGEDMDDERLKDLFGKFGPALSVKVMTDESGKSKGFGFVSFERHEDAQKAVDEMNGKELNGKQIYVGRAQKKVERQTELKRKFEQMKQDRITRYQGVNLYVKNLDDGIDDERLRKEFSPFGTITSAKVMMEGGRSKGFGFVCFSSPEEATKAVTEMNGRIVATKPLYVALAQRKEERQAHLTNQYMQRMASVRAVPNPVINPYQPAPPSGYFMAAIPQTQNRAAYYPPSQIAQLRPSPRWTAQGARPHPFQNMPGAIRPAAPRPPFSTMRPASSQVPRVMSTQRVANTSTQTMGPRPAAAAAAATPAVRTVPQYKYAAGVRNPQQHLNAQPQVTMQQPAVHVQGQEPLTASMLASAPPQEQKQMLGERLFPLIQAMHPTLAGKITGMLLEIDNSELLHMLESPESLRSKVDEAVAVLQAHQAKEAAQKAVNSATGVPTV
eIF4H inh: inhibitors of RNA binding by human eIF4H; Q15056; eIF4H fluorescence polarization binding assay; inhibition, % at 35 µM; actives 0.94% (n = 290,000);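 active = 50% or more with normal probe brightness, or confirmed in later tests; inconclusive = above 50% with abnormal brightness, or retests that disagree; inactive = below 50% or failed in later tests; about a fifth of its hits are not listed in these tables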;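 also: calls also rest on retests at 20 µM and on dose response follow-up; 0% = protein and probe with vehicle and 100% = probe without protein; strong numbers were not always called active; many hits fall short of the cut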
eIF4H inh retest: second read-out of eIF4H inh, no call of its own (marks repeat the call); inhibition, %; compound at 20 µM; confirmation average;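 mean of two retest wells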
PABP polyA inh retest: recorded beside PABP polyA inh, whose call it bears; inhibition, %; compound at 20 µM; confirmation repeats;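 mean of two retest wells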
MT1-MMP act inh RFP: further read-out of MT1-MMP act inh, marked with its call; RFP signal change, %; measured here: RFP expression control read;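 0 = vehicle wells; hits needed this value within 50% of zero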
* marks the source's active call; other numbers are inactive results; i = inactive; ? = inconclusive; . = not tested or not shown; & = joins results of further samples.

SMILES	Yeast UUG start	MT1-MMP act inh	MT1-MMP act inh RFP	CSC inhib	Rce1 inh	Env fusion inh	PABP polyA inh	eIF4H inh	others
CCOC(=O)NC(c1ccc(C(C)C)cc1)C(Cl)(Cl)Cl (centres undefined)	.	5	4	.	i	.	-8	-2
COc1ccc(CCNC(=O)COc2cccc3c2OC(C)(C)C3)cc1OC	6	3	-4	-9	i	3	.	.
CCCCCCC1/C(=N\NC(=O)c2ccccc2)CCC1C(=O)OC (centres undefined)	-9	6	9	-6	i	2	0	-2
Cc1ccc(C)c(NC(=S)Nc2cccnc2)c1	.	4	13	-4	i	-4	-6	3
O=C(NCc1cccs1)C1CC1	1	-3	0	-10	i	4	-19	-16
CCOCc1[nH]c(=S)[nH]c(=O)c1Cc1ccc(OCC)cc1	.	-5	0	-16	i	-78	4	-5
Cc1ccc(NNC(=O)c2c(C)noc2C)cc1Cl	.	2	1	98*	i	-16	-4	0
Cc1cccc(OC(=O)C2C(c3ccccc3)C(C(=O)O)C2c2ccccc2)c1 (centres undefined)	-9	.	.	-2	i	-61	-5	0
CC(C)(C)NC(=O)C1CC(=O)OC12CCOC(C)(C)C2 (centres undefined)	.	-2	3	-4	i	2	-6	7
Cc1cccc(C)c1NC(=O)CN(C)C(=O)c1cccc(-n2cccc2)c1	.	4	2	-3	i	-6	.	.

Next section; it opens with the two that closed the last part.
SMILES	Yeast UUG start	MT1-MMP act inh	MT1-MMP act inh RFP	CSC inhib	Rce1 inh	Env fusion inh	PABP polyA inh	eIF4H inh	others
CC(C)(C)NC(=O)C1CC(=O)OC12CCOC(C)(C)C2 (centres undefined)	.	-2	3	-4	i	2	-6	7
Cc1cccc(C)c1NC(=O)CN(C)C(=O)c1cccc(-n2cccc2)c1	.	4	2	-3	i	-6	.	.
CC(C)C[C@H]1COCCS(=O)(=O)N1Cc1cccc(F)c1	-7	-6	-5	-3	i	-5	.	.
CCOC(=O)C1=C(C)Nc2nc(SCC(=O)OC)nn2C1c1cc(F)cc(F)c1 (centres undefined)	-12	2&11	-3&13	-12	i	20&-39	-3	0
Cc1ccc(C(NC(N)=O)c2ccccc2C)cc1 (centres undefined)	-7	4	2	-20	i	-23	-12	6
COC(=O)c1ccc(Sc2ccccc2NS(=O)(=O)c2ccc(NC(C)=O)cc2)nc1	-11	1	1	1	i	-70	0	-7
C(=C\c1nc(-c2cccnc2)no1)/c1ccccc1	-17	1	-4	-10	i	-77	6	8
COc1cccc(-n2nnnc2SCC(=O)NCCc2ccc(OC)c(OC)c2)c1	.	1	6	-5	i	9	-4	-13
C/C(=C\C(=S)Nc1ccccc1)Nc1cccc2ccccc12	.	4	14	11	i	8	-4	34
CCOc1ccc(CCNC(=O)c2cccc3c2C(=O)N(CCOC)C3)cc1OCC	17	-2	-2	-1	i	2	12	8
COc1ccc(CCCNC(=O)C2(C)Cc3c(-c4ccc(C(N)=O)cc4)ccnc3O2)cc1 (centres undefined)	37	12	-3	.	.	9	.	.
CC(=O)c1cccc(N=Cc2c(O)c3ccccc3oc2=O)c1	-11	-7	1	-1	i	5	-6	13
OCCC1CN(Cc2nc3c(s2)CCCC3)CCN1CCc1ccccc1 (centres undefined)	.	-1	1	18	i	12	-3	-2
CCOc1ccc(-c2nc(S(=O)(=O)c3ccccc3)c(NCc3cccnc3)o2)cc1	-12	1	0	-6	i	.	10	0
COc1ccc(C(=O)Nc2ccc(Cl)cc2C(=O)NCc2ccco2)cc1	4	4	-6	45	i	-189	-3	8
CC1CC1C(=O)OCC(=O)Nc1cccc(Br)c1 (centres undefined)	-9	5	3	.	.	-3	.	.
O=C(NC(=O)c1ccccc1)Nc1ccc(Cl)cn1	-17	-2	1	16	i	-198	12	13
O=C(Nc1ccccc1)N1CCSc2cc(Cl)ccc21	-22	-2	0	-4	i	-59	-2	2
COC(=O)c1ccc(C)c(NC(=S)NCc2ccc(Cl)cc2)c1	-12	0	-1	-10	i	-2	1	-3
CCCCN(C)C(=O)c1cccc(OC2CCN(CC(C)(C)C)CC2)c1	-14	0	-5	22	i	-6	18	20
CCCCn1c(N)c(N(Cc2ccccc2OC)C(=O)CCSC)c(=O)[nH]c1=O	-10	-3	0	-33	i	-1	10	-4
Cc1cc(C)n2nc(C(=O)Nc3cccc(S(=O)(=O)N4CCOCC4)c3)nc2n1	-7	0	2	.	.	-23	.	.
Cn1c(=O)c2c(-c3ccccc3)n(-c3ccccc3F)cc2n(C)c1=O	-9	-2	-1	.	.	15	.	.
Cn1ccnc1C(O)(c1nnc(-c2ccccc2)o1)C(F)(F)F (centres undefined)	-12	2	0	-11	i	.	7	-4
CCCc1cc(=O)[nH]c(SCCOc2ccc(Cl)cc2)n1	-4	12	-1	23	i	-23	0	3
CCc1ccc(NC(=O)N2CCN(c3ccc(F)cc3)CC2)cc1	.	5	1	.	.	0	-5	-4
CC1CCN(C(=O)CNC(=O)CNS(=O)(=O)c2ccccc2)CC1	-16	4	1	-15	i	6	0	1
COc1cccc(CC(=O)Nc2ncc(C)s2)c1	-9	-5	-2	-6	.	22	1	0
COc1cccc(NC(=O)CN(C)S(=O)(=O)c2ccc3c(c2)n(C)c(=O)c(=O)n3C)c1	-17	1	4	-2	i	0	3	-1
CC(CN1CCCCC1)c1ccccc1 (centres undefined)	-7	-3	0	.	i	-13	17	21
COc1ccc(-c2csc3ncnc(N4CCN(c5ccccc5Cl)CC4)c23)cc1	-9	-7	-7	20	i	10	-20	-2
CCc1nnc(NC(=O)c2ccc(S(=O)(=O)N(C)c3ccccc3)cc2)o1	.	1	1	29	i	9	-27	10
COc1ccc(NC(=O)c2cc(C)nc3ccccc23)cc1S(=O)(=O)N1CCOCC1	-7	-6	4	-6	.	-3	.	.
O=C(O)C1OC(Oc2c(-c3ccc(O)c(O)c3)oc3cc(O)cc(O)c3c2=O)C(O)C(O)C1O (centres undefined)	.	.	.	0	i	.	14*	76*	eIF4H inh retest=104*;PABP polyA inh retest=67*
CC(C)(C)NC(=O)C(c1ccncc1)N(Cc1ccco1)C(=O)c1ccc(-c2ccccc2)[nH]1 (centres undefined)	.	-11	-4	-7	i	-8	10	4
Cc1ccc(CNC(=O)C2CCN(S(=O)(=O)c3c(C)noc3/C=C/N(C)C)CC2)cc1	-7	1	2	6	i	12	3	-2
CCOc1ccccc1N(CC(=O)Nc1ccccc1Br)S(=O)(=O)c1ccccc1	1	-8	-11	.	.	42	.	.
Cc1cc(C)c([N+](=O)[O-])cc1NCC(=O)N1CCN(c2ccccc2)CC1	.	3	-6	1	i	16	0	-12
COC(=O)c1ccc2c(c1)N(C)S(=O)(=O)c1cnc(SCC(=O)C(C)(C)C)nc1-2	-20	1	0	-7	i	6	-1	-4
CCC(NC(=O)C1(C)CC1(Br)Br)c1ccc(C)cc1 (centres undefined)	-5	4	0	-8	i	.	-9	0
COc1ccc(CCn2c(=S)[nH]c3cc(C(=O)N4CCOCC4)ccc3c2=O)cc1OC	.	8	-5	-17	i	6	-12	-3
CCOC(=O)C1=C(C)NC(C)=C(C(=O)OCC)C1	1&-19	0&-3	1&4	-26&-16	i	-5&12	-4&4	-3&0
CC(=O)Nc1ccc2c(c1)CCCC2=O	-18	0	-2	-3	i	-7	-3	-5
CCCCCn1c(=NC(=O)c2ccco2)c(C(=O)OCC)cc2c(=O)n3ccccc3nc21	-2	2&-3	-5&-3	15	i	-7&-15	6	10
CCC(CC)C(=O)Nc1nnc(S(=O)(=O)N2CCc3ccccc32)s1	-12	5	-2	7	i	-6	-10	-2
CC(=O)NC1C(=O)N(CCN2CCOCC2)c2ccc(Br)cc21 (centres undefined)	-19	-3	4	-3	i	-29	3	-11
Cc1ccc2cc(C(=O)O)c(C)nc2c1	.	0	4	-2	i	.	-5	-4
COC(=O)c1ccc(C(NC(=O)OCc2ccccc2)/C(F)=C/[C@@H](C)C(=O)NCc2ccc(OC)c(OC)c2)cc1 (some centres undefined)	-2	-1	0	0	.	16	3	-8
COc1ccc(CC(=O)O/N=C(\N)c2cccc([N+](=O)[O-])c2)cc1	-6	-1	-3	-3	i	7	121*	?	PABP polyA inh retest=66*
CCOc1ccccc1NC(=O)C(OC(=O)c1ccc(CC)cc1)c1ccccc1 (centres undefined)	.	3	-3	-2	i	27	4	-6
Cc1ccc(C(=O)Nc2ccc(Br)c(C(F)(F)F)c2)cc1	-18	-8	-15	37	i	-102	-1	0
CC(=O)Nc1ccc(S(=O)(=O)N(C)CC(=O)OCC(=O)N2CCCC2=O)cc1	.	-5	3	-10	i	1	.	.
CCCCOC(=O)c1nc[nH]c1C(=O)OCCCC	.	5	-2	-12	i	9	-6	3
NC(=O)c1c(N)sc(=S)n1CC1CCCO1 (centres undefined)	-24	-3	0	6	i	-23	3	2
COc1cc(C(=O)N2CCN(S(=O)(=O)c3ccc(Cl)cc3)CC2)ccc1OCC(=O)N1CCOCC1	-6	1	-4	.	.	-2	.	.

Compounds above containing an aryl methoxy group, in the order listed:
SMILES	Yeast UUG start	MT1-MMP act inh	MT1-MMP act inh RFP	CSC inhib	Rce1 inh	Env fusion inh	PABP polyA inh	eIF4H inh	others
COc1ccc(CCNC(=O)COc2cccc3c2OC(C)(C)C3)cc1OC	6	3	-4	-9	i	3	.	.
COc1cccc(-n2nnnc2SCC(=O)NCCc2ccc(OC)c(OC)c2)c1	.	1	6	-5	i	9	-4	-13
COc1ccc(CCCNC(=O)C2(C)Cc3c(-c4ccc(C(N)=O)cc4)ccnc3O2)cc1 (centres undefined)	37	12	-3	.	.	9	.	.
COc1ccc(C(=O)Nc2ccc(Cl)cc2C(=O)NCc2ccco2)cc1	4	4	-6	45	i	-189	-3	8
CCCCn1c(N)c(N(Cc2ccccc2OC)C(=O)CCSC)c(=O)[nH]c1=O	-10	-3	0	-33	i	-1	10	-4
COc1cccc(CC(=O)Nc2ncc(C)s2)c1	-9	-5	-2	-6	.	22	1	0
COc1cccc(NC(=O)CN(C)S(=O)(=O)c2ccc3c(c2)n(C)c(=O)c(=O)n3C)c1	-17	1	4	-2	i	0	3	-1
COc1ccc(-c2csc3ncnc(N4CCN(c5ccccc5Cl)CC4)c23)cc1	-9	-7	-7	20	i	10	-20	-2
COc1ccc(NC(=O)c2cc(C)nc3ccccc23)cc1S(=O)(=O)N1CCOCC1	-7	-6	4	-6	.	-3	.	.
COc1ccc(CCn2c(=S)[nH]c3cc(C(=O)N4CCOCC4)ccc3c2=O)cc1OC	.	8	-5	-17	i	6	-12	-3
COC(=O)c1ccc(C(NC(=O)OCc2ccccc2)/C(F)=C/[C@@H](C)C(=O)NCc2ccc(OC)c(OC)c2)cc1 (some centres undefined)	-2	-1	0	0	.	16	3	-8
COc1ccc(CC(=O)O/N=C(\N)c2cccc([N+](=O)[O-])c2)cc1	-6	-1	-3	-3	i	7	121*	?	PABP polyA inh retest=66*
COc1cc(C(=O)N2CCN(S(=O)(=O)c3ccc(Cl)cc3)CC2)ccc1OCC(=O)N1CCOCC1	-6	1	-4	.	.	-2	.	.
